Screens: PubChem BioAssay, Fisher Drug Discovery Resource Center
NPYLR7 ag – agonists of mosquito NPYLR7 receptor, primary screen, cell-based, Aedes aegypti, calcium fluorescence, mosquito biting behavior | Aedes aegypti neuropeptide Y-like receptor 7 (NPYLR7) | HEK293T NPYLR7/Galpha15, GCaMP6s calcium fluorescence | activation, % at 10 µM | 270,000 tested, 0.15% active; in the data active = activation above about 40%;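 also: 0% = vehicle and 100% = reference agonist at the receptor; some compounds past the cut are filed as inactive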
NPYLR7 ag max-min – second read-out of NPYLR7 ag, no call of its own (marks repeat the call); activation, %; measured here: Max-Min RFU normalised activation; some inactives read as strong as hits;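 span of the calcium signal over five minutes; 0% = vehicle and 100% = native peptide agonist; compound fluorescence can raise it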
Active calls of the source: *; & = joins results of further samples. This is a subset; count on the stated rates, not on these rows.

Screens in order – NPYLR7 ag | NPYLR7 ag max-min
> FC(F)(F)CN1CCC(NCc2ccc(-c3ccccc3Cl)s2)C1 (stereo not drawn)
→ 19 | 15
> CCC(CCO)NC(=O)Nc1cc(-c2ccccc2)on1 (stereo not drawn)
→ 5 | 3
> CCN(CC)S(=O)(=O)c1ccc(/C=C/C(=O)N=c2sccn2C)cc1
→ 7 | 3
> O=C(NCc1cn2ccccc2n1)C1CCCN1C(=O)C1CCCCC1 (stereo not drawn)
→ 12 | 5
> O=C(Nc1cccc2ncccc12)c1ccccc1Br
→ 2 | 8
> Cc1cc(Br)cc(Br)c1N
→ -2 | -3
> Fc1ccc(-c2ccc(-c3noc(-c4ccccc4Cl)n3)cc2)cc1
→ 7 | 0
> O=C(O)c1ccc(CSc2nc(Cl)cc(N3CCCC3)n2)cc1
→ -15 | -20
> CCc1ccc(C(C)NC(=O)C2CCN(C(=O)NC3CC3)CC2)cc1 (stereo not drawn)
→ 1 | 0
> CN(Cc1ccccc1N1CCOCC1)c1snc(Cl)c1C#N
→ 8 | 6
> CCOC(=O)c1cc(C2CC2)n(C2CCN(C(=O)c3ccc(F)cc3)CC2)n1
→ 26 | 16
> CCS(=O)(=O)c1ccccc1C(=O)N=c1sc2ccc(OC)cc2n1CCSC
→ 0 | -3
> COc1ccccc1CN1CCn2nc(C(=O)NCc3cccnc3)cc2C1=O
→ -1 | 6
> O=C1Nc2ccccc2SC1Nc1ccc(Cl)c(C(F)(F)F)c1 (stereo not drawn)
→ -1 | -3
> O=C(OCC(=O)N1CCCC1)c1cccc(F)c1
→ 5 | 11
> CCCN(CC1CC(c2ccc(Cl)c(Cl)c2)=NO1)C(=O)NCC (stereo not drawn)
→ -3 | 0
> O=C(COC(=O)c1cccc([N+](=O)[O-])c1)c1ccc(Br)cc1
→ 3 | 7
> Cc1cc(NC(=O)c2ccc(Br)o2)no1
→ 3 | 0
> CN(CCc1ccccc1)C1CCCN(C2CCN(Cc3cccnc3)CC2)C1 (stereo not drawn)
→ 1 | 0
> COC(=O)c1ccccc1SCc1ccc(C(=O)N2C3CCC2CC(Oc2cccc(C#N)c2)C3)cc1 (stereo not drawn)
→ 4 | -9
> COc1ccc([C@@H](C)Nc2nncc(-c3ccc(Cl)cc3)n2)cc1
→ 5 | 4
> Cn1c(CN2CCCC(CO)(Cc3ccccc3)C2)nc2ccccc21 (stereo not drawn)
→ -2 | -5
> Cc1cc(C(F)(F)F)nn1CC(=O)Nc1ccccc1C(F)(F)F
→ -4 | -9
> Cc1cccc(N2C(=O)CSC2c2ccc(NC(=O)c3cccs3)cc2)c1 (stereo not drawn)
→ -3 | 4
> O=c1[nH]c2ccccc2n1C1CCN(S(=O)(=O)c2ccc3c(c2)OCCO3)CC1
→ -2 | 20
> CC(C)=CCN1CCNC(=O)C1CC(=O)N(C)Cc1cnc2ccccc2n1 (stereo not drawn)
→ -1 | -4
> O=C(Nc1ccc(-c2ccco2)cc1)C1CCCN(Cc2cccc3c2OCO3)C1 (stereo not drawn)
→ 20&7 | 13&0
> CCOc1ccc(-c2ccnc(N3CCN(C(=O)CCSC)CC3)n2)cc1
→ -13 | -11
> CN1CCN(Cc2ccc(-c3ccc(-c4ccn[nH]4)cc3)nc2)CC1
→ 5 | 5
> Cc1cc2c(=O)n(C)c(SCC(=O)NCc3ccco3)nc2s1
→ 6 | 4
> O=c1c(Br)c(Br)cnn1CN1CCOCC1
→ 5 | 5
> CC(N)=C(C#N)C(=O)COC(=O)C=CC(=O)OCC(=O)C(C#N)=C(C)N
→ -3 | -2
> Nc1cc(N)nc(Sc2ncnc3ccccc23)n1
→ 19 | 7
> C=CCN(CC=C)c1cc(Cl)nc(SCc2ccc(C(=O)N3CCN(c4ccc([N+](=O)[O-])cc4)CC3)cc2)n1
→ 26 | 29
> COC(=O)N(C)CC(=O)Nc1ccc2c3c(cccc13)CC2
→ 2 | -1
> CS(=O)(=O)N1CCN(c2ccc(Nc3cccnc3)nn2)CC1
→ 10 | 3
> CCCn1c(=O)n(CC(O)COc2cc(C)ccc2C)c2ccccc21 (stereo not drawn)
→ 0 | 3
> Cc1cc(C)c(NC(=O)CNC(=O)c2ccc(Cl)c(N3CCCC3=O)c2)c(C)c1
→ -5 | -8
> CC(=NNC(=O)c1cc(C)oc1C)c1ccc2c(c1)Nc1ccccc1S2
→ -6 | -12
> COc1ccc(N2CCN(Cc3cc(=O)c(OCC(=O)NC4CCCC4)co3)CC2)cc1
→ 0 | 0

Compound profiles, from the list above:
COC(=O)N(C)CC(=O)Nc1ccc2c3c(cccc13)CC2 reads NPYLR7 ag = 2; NPYLR7 ag max-min = -1
Cc1cccc(N2C(=O)CSC2c2ccc(NC(=O)c3cccs3)cc2)c1 (stereo not drawn) reads NPYLR7 ag = -3; NPYLR7 ag max-min = 4
CC(N)=C(C#N)C(=O)COC(=O)C=CC(=O)OCC(=O)C(C#N)=C(C)N reads NPYLR7 ag = -3; NPYLR7 ag max-min = -2

(continued)
Screens in order – NPYLR7 ag | NPYLR7 ag max-min
> CNCC(=O)N1CCCC1c1nc(-c2cccnc2)no1 (stereo not drawn)
→ -1 | -5
> Cc1ccc(CNc2nc(CN3CCc4ccccc4C3)nc3ccccc23)o1
→ 16 | 4
> Cc1ccc(C)c(Nc2nc(NCc3ccco3)nc3nccnc23)c1
→ 6 | 6
> CCCCn1c(=O)c2c(nc3n2CC(C)CN3c2ccc(OC)cc2OC)n(C)c1=O (stereo not drawn)
→ 8 | 7
> C=CCN1C(=O)NC(c2cc(OC)ccc2OC)C2=C1CN(Cc1ccco1)C2=O (stereo not drawn)
→ 25 | 31
> CC(=O)c1cccc(NC(=O)c2cc3c(=O)n(C)c(=O)n(C)c3n2Cc2ccccc2)c1
→ 3 | 1
> O=c1[nH]c(CN2CCN(Cc3ccccc3)CC2)nc2ccsc12
→ -1 | 1
> CC(C)CC1NC(=O)NC1=O (stereo not drawn)
→ -2 | -2
> Cn1ncc(Oc2cccc(C(F)(F)F)c2)c(Nc2cccc(C(=O)N3CCCCC3)c2)c1=O
→ -3 | -2
> CCCCC(=O)N(C)c1c(CC)nc2c(OCc3cc(Cl)cc(Cl)c3)cccn12
→ 1 | 3
> COCC(=O)Nn1cnc2c(cnn2-c2ccc(C)c(C)c2)c1=O
→ 0 | -5
> CC(NC(=O)C1CCN(c2ccc3nnc(C(F)(F)F)n3n2)CC1)c1ccccc1 (stereo not drawn)
→ -7 | -9
> COCCCN(CC(=O)N(CCc1ccc(OC)c(OC)c1)Cc1ccco1)C(=O)c1cc(C(F)(F)F)cc(C(F)(F)F)c1
→ 1 | -1
> O=C(c1ccc(-c2cn[nH]c2)nc1)N1CCCN(C2CCCCC2)CC1
→ -2 | -4
> O=C(CSc1nnc2ccccn12)NCc1ccco1
→ 1 | -1
> Cc1ccn2c(NC3CCCCC3)c(-c3cccc(Cl)c3)nc2c1
→ 1 | 1
> Cc1ccccc1OCC(=O)N1CCC(c2nncn2C(C)C)CC1
→ 3 | 0
> Cc1cc(C)nc(SCc2cc(=O)c(OC(=O)c3ccc4c(c3)OCO4)co2)n1
→ -11 | -3
> S=c1[nH]nc(-c2ccccn2)n1N=Cc1cccc2ccccc12
→ -1 | -2
> C#CCOc1cccc(/C=C/c2[nH]c(=O)[nH]c(=O)c2[N+](=O)[O-])c1
→ 3 | 1
> COC(=O)c1ccc(-c2nc(CN(Cc3ccccc3)CC3CC3)c(C)o2)cc1
→ -8 | -11
> Cc1cc(C(=O)N2CCN(c3nc4ccccc4nc3C)CC2)c(C)o1
→ 19 | 28
> O=C(NCC1CCCO1)c1ccc(CSc2nc(-c3ccccc3)cc(N3CCN(c4ccccc4Cl)CC3)n2)cc1 (stereo not drawn)
→ 6 | 13
> CC(C)c1ccc(S(=O)(=O)Nc2cc(S(N)(=O)=O)ccc2N(C)C)cc1
→ 6 | 3
> CC(=O)Nc1ccc(S(=O)(=O)NCc2ccsc2)c(C)c1
→ -7 | -7
> COC(=O)C1=C(C)NC(C)=C(C(=O)OC(C)(C)CN(C)CCC(c2ccccc2)c2ccccc2)C1c1cccc([N+](=O)[O-])c1 (stereo not drawn)
→ 5 | -6
> COc1cccc(C(C2Sc3ncnn3C2=O)N2CCN(C)CC2)c1 (stereo not drawn)
→ 2 | 1
> N#CC(=Cc1ccc(Sc2nc3ccccc3[nH]2)o1)c1nc2ccccc2[nH]1
→ 2 | 1
> Cc1ccn2c(CNCC3OCCc4ccccc43)c(C(=O)N3CCCCCC3)nc2c1 (stereo not drawn)
→ -6 | -12
> Cc1nc(Cc2nc(-c3ccc(Br)o3)no2)cs1
→ 3 | 0
> CC(C)CC(=O)NCCNc1nc(-c2ccccc2Cl)nc2ccccc12
→ 8 | 14
> CCn1nc(NC(C)=O)c2cc3ccc(C)cc3nc21
→ -1 | -3
> Cn1nc(C(=O)Nc2nc3c(s2)CN(C(=O)OC(C)(C)C)CC3)c2ccccc2c1=O
→ 12 | 9
> O=C(CCC1CCCN(Cc2cccc(-n3cccn3)c2)C1)Nc1ccccc1F (stereo not drawn)
→ 10 | 4
> CCC(C)(C)NC(=O)CSc1n[nH]c(Cc2cccs2)n1
→ 4 | 2
> CCN=C1NN=C(c2c(-c3ccc(F)cc3)[nH]c3ccccc23)CS1
→ 5 | 3
> CCn1nnc2c(SCC(=O)OC)ncnc21
→ 1 | 19
> Cc1ccccc1OCCSc1nc2ccccc2n1CC(O)CO (stereo not drawn)
→ -13 | -17
> COc1ccc(N2CCN(c3cc(C)nc(SCc4cccc(C(=O)O)c4)n3)CC2)cc1
→ 9 | 20
> O=C1CC(c2ccccc2)CN1Cc1nc(C2CC2)n[nH]1 (stereo not drawn)
→ 10 | 2
> O=C(c1ccc(F)cc1)N1CCC(n2nc(-c3ccccc3)cc2-c2ccccc2)CC1
→ 3 | 3
> C=CCCC(O)CN(Cc1ccc(F)cc1)Cc1c(C)nn(-c2ccccc2)c1Oc1ccccc1OC (stereo not drawn)
→ 3 | 3
> COC(=O)CCC(=O)N(Cc1ccc(C)cc1)Cc1nc2cc(C)ccc2o1
→ -2 | -9
> COCCN(Cc1cc(NC(=O)c2cccs2)ccc1N(C)C)C(=O)Cc1cccs1
→ -3 | -2
> C=CCn1c(C)cc(C(=O)Cn2cc([N+](=O)[O-])ccc2=O)c1C
→ -2 | -2
> COc1cccc(NC(=O)Nc2cccc(-n3nc(OC)nc3-c3cccc(OC)c3)c2)c1
→ 17 | 14
> CCOC(=O)N1CCN(C(c2ccc(C)cc2)c2c(O)cc(C)n(Cc3ccccn3)c2=O)CC1 (stereo not drawn)
→ 10 | 5
> Cc1ccc(NC(=O)CSc2nccn3nc(-c4ccccc4)cc23)cc1F
→ -5 | -9
> CC1(C)CC(N=C(c2ccccc2)c2ccc(O)cc2O)CC(C)(C)N1
→ -14 | -19
> CN(Cc1cccnc1)C(=O)CC(c1ccccc1)c1ccc(Cl)cc1 (stereo not drawn)
→ 3 | -1
> Cc1cccc(C)c1-n1nnnc1SCC(=O)N1CCC(C)CC1
→ 3 | 6
> O=C(CN1CCN(C(=O)c2sc3ncccc3c2-n2cccc2)CC1)N1CCCC1
→ -4 | -6
> Cc1nc2c(c(N3CCC(C(O)CCc4ccccc4)CC3)n1)CNC2 (stereo not drawn)
→ 15 | 12
> CCN(CC)C(=O)CNC(=O)c1cc2ccccc2cc1O
→ 12 | 11
> CC(=CC(=O)C(F)(F)F)NNC(=O)CCN1CC(C)OC(C)C1 (stereo not drawn)
→ -2 | -6
> Cc1sc2nc(CCN)nc(N3CC=CCC3)c2c1C
→ -2 | -3
> COc1ccc(CN(C2CC2)S(=O)(=O)c2c(Cl)cccc2Cl)cc1
→ -4 | -3
> COc1ccc(-c2ccccc2NC(=O)C2CCCN(Cc3cccc4c3OCO4)C2)cc1 (stereo not drawn)
→ 15&3 | 12&-3
> COc1ccc(/C=C2\C=C(c3ccccc3)N(c3ccc(Br)cc3)C2=O)cc1
→ -1 | 5
> CC(=O)c1cccc(S(=O)(=O)NC(c2ccc3c(c2)OCCCO3)C(C)C)c1 (stereo not drawn)
→ 3 | 4

Retrieved one by one from above (5):
Screens in order – NPYLR7 ag | NPYLR7 ag max-min
> COC(=O)CCC(=O)N(Cc1ccc(C)cc1)Cc1nc2cc(C)ccc2o1
→ -2 | -9
> O=C(c1ccc(F)cc1)N1CCC(n2nc(-c3ccccc3)cc2-c2ccccc2)CC1
→ 3 | 3
> COc1cccc(NC(=O)Nc2cccc(-n3nc(OC)nc3-c3cccc(OC)c3)c2)c1
→ 17 | 14
> C=CCn1c(C)cc(C(=O)Cn2cc([N+](=O)[O-])ccc2=O)c1C
→ -2 | -2
> CCOC(=O)N1CCN(C(c2ccc(C)cc2)c2c(O)cc(C)n(Cc3ccccn3)c2=O)CC1 (stereo not drawn)
→ 10 | 5

(further entries)
Screens in order – NPYLR7 ag | NPYLR7 ag max-min
> C#CCNC(=O)CC[C@H]1CNC(=O)[C@@H]2[C@@H](CCN2CC(C)(C)C)N1C
→ -5 | -10
> Cc1ccc(NC(=O)Cc2csc(NC(=O)c3ccco3)n2)c(C)c1
→ 5 | 10
> COCc1cccc(-c2ncc(OC)nc2NC(=O)c2ccc(OC)cc2)c1
→ 5 | -6
> Nc1cnc(-c2cc3ccccc3o2)cn1
→ 3 | 0
> Cc1ccccc1-n1cc(CNCc2c(C(=O)N3CCOCC3)nc3ccccn23)cn1
→ 1 | -1
> CCOCC(=O)Nc1ccc(-c2cn3nc(OC)ccc3n2)cc1
→ -5 | -10
> COc1ncnc2c1sc1nc(N3CCOCC3)c3c(c12)CCCC3
→ 0 | -3
> COCCn1cc(C(=O)N2CCN(C(=O)CC(C)C)CC2)c2nn(-c3ccccc3)c(=O)c-2c1
→ -1 | -1
> CCCCC1C=CCN1C(=O)c1cc(S(N)(=O)=O)ccc1F (stereo not drawn)
→ 0 | 4
> Fc1ccc(-c2csc(-c3cccnc3)n2)cc1
→ 17 | 16
